Source: PubChem
HSV replic up: HSV replication enhancement | HSV replication augmentation in cells, fold increase | maximum fold increase | hit rate 0.005% among 220,000;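 active means peak rise of 1.5-fold or more in the series; tested in PC3 cells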;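 further: first round at 10 µM; read as green reporter fluorescence; hits show the peak of a series up to 25 µM; 1 = signal of infected wells without compound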
Insulin prom inh: TRM-6 insulin promoter activity inhibition; inhibition, % at 2 µM; hit rate 0.9% among 130,000; TRM-6 cells (human fetal islet line), insulin promoter-eGFP reporter, imaging; reporter expression induced with tamoxifen; AID 1273;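 active means inhibition above the mean plus 3 SD, with well images judged a real hit on visual review, cut at about 60% in these data, passing the limit was not always enough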
RGS16-Gao HTS: regulators of human RGS16-Galphao interaction. O15492+P09471. bead-based flow cytometry RGS16-Galphao binding, fluorescence; actives lie on both sides. binding response (% of control), % at 10 µM. hit rate 0.38% among 220,000. AID 1441;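 active means below 25% or above 175%, edge rows of some plates excepted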;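 further: Galphao activated by GDP with aluminum fluoride before binding; 100% = wells without compound and 0% = beads without RGS; some results beyond the cut were filed as inactive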
Target sequence (O15492 whole entry, looked up): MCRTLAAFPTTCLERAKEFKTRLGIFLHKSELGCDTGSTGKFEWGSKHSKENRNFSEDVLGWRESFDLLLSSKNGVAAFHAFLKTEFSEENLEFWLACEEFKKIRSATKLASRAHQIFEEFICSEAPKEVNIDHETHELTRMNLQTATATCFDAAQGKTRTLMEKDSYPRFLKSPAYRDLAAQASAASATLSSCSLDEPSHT
Target sequence (P09471 whole entry, looked up): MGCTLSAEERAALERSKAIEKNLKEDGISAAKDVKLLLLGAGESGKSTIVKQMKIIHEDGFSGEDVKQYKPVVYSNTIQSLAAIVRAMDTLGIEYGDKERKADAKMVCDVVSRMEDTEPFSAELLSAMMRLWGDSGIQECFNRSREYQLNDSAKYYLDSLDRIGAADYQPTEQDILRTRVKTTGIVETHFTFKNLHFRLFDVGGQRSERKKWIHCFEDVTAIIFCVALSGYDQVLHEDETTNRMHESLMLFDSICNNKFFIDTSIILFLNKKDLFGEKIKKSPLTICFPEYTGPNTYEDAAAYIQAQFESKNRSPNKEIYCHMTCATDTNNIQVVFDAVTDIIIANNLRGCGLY
GALR2 agonist: GALR2 (human) receptor agonism; O43603; GALR2-expressing cells, agonist activation read-out; activation, %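 (tested at 5 µM)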; hit rate 0.48% among 140,000; AID 803;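 active means above mean plus 3 SD of all compounds, about 5% in these data, not always enough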;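 further: 0% = vehicle buffer wells and 100% = reference agonist at full effect; tested in CHO reporter cells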
Target sequence (O43603 whole entry, looked up): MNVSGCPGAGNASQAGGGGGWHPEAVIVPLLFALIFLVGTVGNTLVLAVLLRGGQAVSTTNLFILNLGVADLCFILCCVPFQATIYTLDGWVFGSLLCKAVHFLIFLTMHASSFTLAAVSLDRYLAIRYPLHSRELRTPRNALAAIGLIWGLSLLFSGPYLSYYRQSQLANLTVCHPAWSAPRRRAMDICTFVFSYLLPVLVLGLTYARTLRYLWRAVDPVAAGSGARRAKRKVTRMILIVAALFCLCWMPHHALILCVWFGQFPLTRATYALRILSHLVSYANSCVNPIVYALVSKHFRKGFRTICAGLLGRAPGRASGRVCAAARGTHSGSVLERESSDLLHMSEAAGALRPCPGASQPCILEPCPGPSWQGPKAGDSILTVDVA
PKD1 kinase inh: blocks activity of human protein kinase D1 | Q15139 | PKD1 kinase fluorescence polarization assay | inhibition, %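 (about 10 µM by stock and volumes)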 | hit rate 0.056% among 200,000;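 active means inhibition of 50% or more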;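 further: controls were vehicle for no effect and a reference inhibitor for full effect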
Insulin prom inh cell count: also measured in Insulin prom inh; calls as there; normalized cell count, %; measured here: cell count, toxicity; reference of the scale not given here;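 cells exposed to compound for 48 h; stained nuclei by imaging scaled within each plate; lower means fewer cells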
HSV replic up primary fold: second read-out of HSV replic up, no call of its own (marks repeat the call); fold increase; compound at 10 µM; measured here: primary screen fold increase 10 uM; tested in PC3 cells;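 GFP signal in the first replicate; 1 = infected wells without compound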
Starred values were filed as active, the others as inactive; i = inactive; nt = not tested or not shown. Rows are unselected; any-hit rate near 1.3%.

No. | molecule | PKD1 kinase inh | RGS16-Gao HTS | GALR2 agonist | HSV replic up primary fold | HSV replic up | Insulin prom inh cell count | Insulin prom inh
1 | O=C(CN1C(=O)C2C3C=CC(C3)C2C1=O)NCC1COc2ccccc2O1 (centres undefined) | 1 | 104 | -3.2 | 0.98 | i | nt | nt
2 | S=C(c1ccc(-c2cc(Cl)ccc2Cl)o1)N1CCCCC1 | -13 | 112 | -1.1 | 0.96 | i | 95 | 4
3 | CCN(CC)C(=O)c1sc2nc(-c3cccs3)cc(-c3ccc(Cl)cc3)c2c1N | -7 | 91 | 0.5 | 1.1 | i | 90 | -44
4 | CC1CCCCN1C(=O)Cn1cc(C(=O)c2ccco2)c2ccccc21 (centres undefined) | -4 | 108 | 1.1 | 0.94 | i | 80 | -31
5 | COCC(=O)OCc1cc2cccc(C)c2[nH]c1=O | nt | 104 | nt | 1 | i | nt | nt
6 | O=C(N/N=C/c1ccc(F)cc1)c1sccc1OCc1ccc(F)cc1 | -12 | 95 | -1.5 | 0.77 | i | 126 | 22
7 | COc1ccc(-n2c(-c3ccc(Cl)cc3)c[n+]3c2CCCCC3)cc1 | nt | 96 | nt | 0.89 | i | nt | nt
8 | CCOC(=O)C1CCCN(C(=O)c2cccc([N+](=O)[O-])c2C)C1 (centres undefined) | 10 | 105 | nt | 1 | i | nt | nt
9 | O=C(NCCCn1ccnc1)/C(=C/c1ccco1)NC(=O)c1ccccc1 | -3 | nt | -2.8 | 1 | i | 88 | -38
10 | Cc1cccc(N2C(=O)CC(Sc3ncn[nH]3)C2=O)c1 (centres undefined) | 1 | 101 | nt | 0.83 | i | nt | nt
11 | CCOc1ccc(CN2C(=O)CCC2(C)C(=O)NCc2cccnc2)cc1 (centres undefined) | 4 | 123 | -0.8 | 0.88 | i | nt | nt
12 | COc1ccc(-c2ccc([C@H]3[C@@H]4C=CCC[C@@]4(C)C(=O)N3Cc3ccccc3)c(F)c2)cc1OC | nt | 106 | nt | 0.83 | i | nt | nt
13 | Cc1ccccc1NP(=O)(c1ccccc1)c1nc2ccccc2s1 (centres undefined) | -3 | 98 | nt | 0.98 | i | nt | nt
14 | Cc1nc(SCC(=O)N2CCOCC2)c2c(=O)n(C)c(=O)n(C)c2n1 | nt | 101 | nt | 1.1 | i | nt | nt
15 | Cc1ccc(C(=O)CN2C(=O)C(=O)N(Cc3ccccc3)C2=O)cc1 | 3 | 103 | nt | 1 | i | nt | nt
16 | CCCCCCC1CC(CSc2ncn[nH]2)OC1=O (centres undefined) | -2 | 105 | -1.2 | 0.91 | i | nt | nt
17 | COc1cc(-n2c(C)nc3cc(C(=O)NCc4ccco4)ccc32)cc(OC)c1OC | 0 | 62 | 0.1 | 0.9 | i | 71 | 0
18 | CC1Cn2c(nnc2-c2cccc(Cl)c2)S1 (centres undefined) | -3 | 103 | -0.9 | 1.2 | i | nt | nt
19 | CSc1nsc(SCC(=O)N2CCCc3ccccc32)n1 | -6 | 120 | -0.9 | 0.93 | i | 130 | -38
20 | COC(=O)c1c(C)noc1-c1cc(C)on1 | -2 | 104 | -1.3 | 0.88 | i | 93 | -29
21 | CC(C)C1Cc2c(sc3c2c(=O)n(-c2ccccc2)c2nncn32)CO1 (centres undefined) | 4 | nt | -0.7 | nt | nt | 121 | -53
22 | CCOC(=O)c1c(-c2ccc(C)o2)csc1NC(=O)CN1CCN(CC)CC1 | -6 | 95 | -1.2 | 0.92 | i | 61 | -50
23 | CC(C)c1ccc(CNC(=O)CCc2ccccc2)cc1 | 8 | 95 | nt | 1.1 | i | nt | nt
24 | CCN1CCN(S(=O)(=O)c2ccc(C)c([N+](=O)[O-])c2)CC1 | 3 | 114 | -0.1 | 1.1 | i | nt | nt
25 | COc1ccccc1C(=O)N1CCN=C1SC | -8 | 110 | -0.2 | 1 | i | nt | nt
26 | O=C(CCSc1ccc(Cl)cc1)N1CCN(c2ccc(O)cc2)CC1 | nt | 100 | nt | 0.88 | i | nt | nt
27 | C#CCOC(=O)c1ccc(-n2cncn2)nc1 | -4 | 103 | 3.9 | 0.89 | i | 67 | 6
28 | Cc1cccc(N(CC(=O)N2CCCC2)S(=O)(=O)c2ccccc2)c1 | -12 | 99 | -1.7 | 0.83 | i | 71 | 27
29 | Cc1c(NC(=S)N/N=C/c2cc([N+](=O)[O-])ccc2O)c(=O)n(-c2ccccc2)n1C | nt | 103 | nt | 1.2 | i | nt | nt
30 | C=CCN(CC=C)S(=O)(=O)c1ccc(C(=O)Nc2nnc(COC)o2)cc1 | 0 | 97 | nt | 1 | i | nt | nt
31 | C/C(=N/Nc1ccc(F)cc1)c1ccc(Cl)s1 | -11 | 102 | -1.3 | 0.84 | i | 85 | 33
32 | C=CCNc1nnnc2c1sc1nc(N3CCOCC3)c3c(c12)CCCC3 | nt | 93 | nt | 0.83 | i | nt | nt
33 | O=C(O)c1nc(N2CCCCC2)ncc1Cl | -2 | 100 | -3.1 | 0.95 | i | 71 | 3
34 | Clc1ccc(CNc2ccc(CNc3ncn[nH]3)cc2)cc1 | -3 | 138 | -1.2 | nt | nt | 62 | -42
35 | Clc1ccc(/C=N/Nc2ncnc3nc[nH]c23)cc1 | nt | 100 | nt | 0.62 | i | nt | nt
36 | CCC(Oc1ccccc1)C(=O)N1CC(C)CC(C)C1 (centres undefined) | -7 | 79 | -0.6 | 0.97 | i | 143 | 60
37 | CCOC(=O)C1(Cc2cccc(Cl)c2)CCCN(C(=O)c2cccnc2)C1 (centres undefined) | -1 | 108 | nt | 1 | i | 85 | -64
38 | CCC(=O)Nc1ccc(S(=O)(=O)Nc2ccc(Cl)nn2)cc1 | -4 | 106 | -0.3 | 0.89 | i | 130 | -7
39 | COc1ccc(C(=O)Cn2c(C)nc([N+](=O)[O-])c2Br)cc1 | nt | 96 | nt | 0.79 | i | nt | nt
40 | C#CCOCCOCCOCCNc1nc(N2CCN(C(=O)[C@H](CCCCN)n3cc([C@@H](N)CC(C)C)nn3)CC2)nc(N2CCN(C(=O)[C@H](CCCCN)n3cc([C@@H](N)CC(C)C)nn3)CC2)n1 | 2 | 112 | nt | 1 | i | nt | nt
41 | O=[N+]([O-])c1ccccc1S(=O)(=O)n1nnc2ccccc21 | -2 | 102 | -0.6 | 1.2 | i | 145 | 43
42 | O=C(COc1ccc(S(=O)(=O)NC2CCCCC2)cc1)NCCC1=CCCCC1 | 9 | 101 | -1.7 | 0.93 | i | 68 | -408
43 | CCOC(=O)C(Cc1ccccc1)C(=O)Nc1ccccc1C (centres undefined) | -1 | 102 | -2.3 | 1 | i | nt | nt
44 | O=C(NCCc1ccccc1)C1CCN(S(=O)(=O)c2cccc3nsnc23)CC1 | 8 | 103 | 0.6 | nt | nt | 103 | -8
45 | Cc1ccccc1OCC(O)Cn1c(NCCN(C)C)nc2c1c(=O)n(C)c(=O)n2C (centres undefined) | -8 | 104 | -1.3 | nt | nt | nt | nt
46 | COc1ccc2oc(=O)c(C(=O)N3CCc4ccccc43)cc2c1 | -5 | 101 | -2.6 | 0.97 | i | 96 | -12
47 | CCOC(=O)c1c(CSc2ccc(C)cc2)oc2ccc(O)cc12 | 4 | 103 | 0.0 | 1 | i | 116 | 0
48 | CCOC(=O)Cc1c(C)nc2cc(-c3ccc(Cl)cc3)[nH]n2c1=O | -6 | 91 | -2.0 | 0.86 | i | 59 | -250
49 | CCOC(=O)Cn1c(=O)oc2cc(S(=O)(=O)N3CCN(C(=O)c4ccco4)CC3)ccc21 | -17 | 106 | -0.8 | 0.91 | i | 98 | 22
50 | O=C(c1ccc(-c2ccccc2)cc1)N1CCN(Cc2ccccn2)CC1 | -6 | 101 | -0.8 | 0.99 | i | 119 | 0
51 | CCOc1cc(C)c(S(=O)(=O)Nc2ccc(F)cc2)cc1C | -3 | 107 | -1.5 | 1 | i | 70 | -38
52 | CCC(C)NC(=O)C1c2ccccc2C(=O)N1Cc1cc(OC)ccc1OC (centres undefined) | -1 | 99 | -3.5 | 0.95 | i | 95 | -26
53 | CCC(C)(C)N=C(NC#N)Nc1cccnc1 | nt | 103 | nt | 0.62 | i | nt | nt
54 | O=C(CC1CCCCC1)NCc1ccc(F)cc1 | 1 | 97 | nt | 1 | i | 138 | -47
55 | Cc1nc2ncnn2c(C)c1CCC(=O)Oc1ccccc1 | -8 | 103 | -1.4 | 1.1 | i | nt | nt
56 | Cc1ccc(CN(C)C(=O)CC2C(=O)NCCN2CC2CCCCC2)cc1 (centres undefined) | 1 | 102 | nt | 0.91 | i | nt | nt
57 | Cc1cc(C)cc(NC(=S)N2CCC(N(C)CC3CCCO3)CC2)c1 (centres undefined) | -1 | 105 | nt | 0.93 | i | 121 | 0
58 | O=C(CSCC(=O)NC1CCCC1)Nc1ccccc1 | 6 | 106 | -0.2 | 1 | i | 100 | -27
59 | C=CCn1c(NCc2cc(C)ccc2O)nc2ccccc21 | -5 | 131 | -0.8 | 0.92 | i | nt | nt
60 | CSc1ccc(C2Nc3ccccc3-c3cc(C)nn32)cc1 (centres undefined) | 9 | 98 | -2.3 | 0.73 | i | nt | nt

Next entries:
No. | molecule | PKD1 kinase inh | RGS16-Gao HTS | GALR2 agonist | HSV replic up primary fold | HSV replic up | Insulin prom inh cell count | Insulin prom inh
61 | Cc1ccc(-c2nc(N=Nc3ccc(O)cc3)n[nH]2)cc1 | -1 | 105 | -1.1 | 0.93 | i | 123 | -14
62 | CN(Cc1cnn(C)c1)C(=O)c1ccc(OC2CCN(CCc3ccccc3)CC2)cc1 | 0 | 102 | nt | 1 | i | 87 | -35
63 | COc1cc(/C=C/c2nc(-c3ccccc3O)n[nH]2)cc(OC)c1OC | -2 | 102 | -2.2 | 0.55 | i | 157 | 31
64 | O=c1oc2ccccc2c(N2CCCC2)c1CN1CCCC1 | 3 | 107 | 0.0 | 0.78 | i | nt | nt
65 | O=C(NCc1ccco1)c1cc2n(n1)C(C(F)(F)F)CC(c1ccc(Br)cc1)N2 (centres undefined) | -4 | 103 | -2.4 | 1.2 | i | 116 | -45
66 | COc1cc(C(=O)NCCC(=O)NCc2ccc3c(c2)OCO3)cc(OC)c1OC | 14 | 95 | -1.3 | 1.2 | i | nt | nt
67 | O=C1NC(=S)N(c2cccc(Cl)c2)C12CCCCC2 | -1 | 103 | 0.4 | 1.1 | i | 89 | -26
68 | Cc1nn(C(C)C(=O)NCC2CCCO2)c(C)c1[N+](=O)[O-] (centres undefined) | 0 | 101 | nt | 0.91 | i | nt | nt
69 | CC(=O)Nc1ccc(CN2CCN(CC=C(C)C)C(CCO)C2)cc1 (centres undefined) | -6 | 97 | nt | 0.93 | i | nt | nt
70 | CSc1ccc(CN(C)Cc2nc3cc(C(F)(F)F)ccc3c(=O)[nH]2)cc1 | -2 | 101 | nt | 0.93 | i | 73 | -83
71 | CCc1ccc(C(=O)COC(=O)CNC(=O)CNC(=O)Cc2ccccc2)cc1 | -18 | 103 | -2.3 | 0.76 | i | 37 | -22
72 | CCNC(=O)/C(C#N)=C/c1c(N2CC(C)OC(C)C2)nc2ccccn2c1=O (centres undefined) | -9 | 102 | 1.0 | 0.99 | i | 105 | -3
73 | COc1cc(OC)cc(C(=O)Nc2cccc(N3CCCC3)c2)c1 | -4 | 105 | -3.7 | 0.95 | i | 108 | -10
74 | Cc1ccc(NC(=S)NC(C)CCc2ccccc2)cc1C (centres undefined) | -6 | 104 | -0.1 | 0.92 | i | 84 | 7
75 | Clc1cccc(-c2cc3nc4c(c(N5CCOCC5)n3n2)CCCC4)c1 | 4 | 102 | -1.6 | 0.98 | i | 106 | 22
76 | C=CCSc1nc(C)c(CC(=C)C)c(=O)[nH]1 | 1 | 98 | nt | 1.1 | i | nt | nt
77 | O=C(NCc1cccnc1)c1sc2ccccc2c1Cl | 6 | 111 | -1.5 | 1 | i | 85 | -36
78 | COc1ccc(C(=O)NCC(=O)OCC(=O)c2ccc3c(c2)NC(=O)CO3)cc1OC | -5 | 99 | nt | 1 | i | 72 | -100
79 | CCOC(=O)C1=NN(C(=O)COc2ccccc2)C(O)(c2ccc(Cl)cc2)C1 (centres undefined) | -2 | 97 | nt | 0.96 | i | nt | nt

Reformatted: three of the compounds above.
[77] O=C(NCc1cccnc1)c1sc2ccccc2c1Cl
  PKD1 kinase inh = 6	RGS16-Gao HTS = 111	GALR2 agonist = -1.5	HSV replic up primary fold = 1	HSV replic up = i	Insulin prom inh cell count = 85	Insulin prom inh = -36

[78] COc1ccc(C(=O)NCC(=O)OCC(=O)c2ccc3c(c2)NC(=O)CO3)cc1OC
  PKD1 kinase inh = -5	RGS16-Gao HTS = 99	GALR2 agonist = nt	HSV replic up primary fold = 1	HSV replic up = i	Insulin prom inh cell count = 72	Insulin prom inh = -100

[79] CCOC(=O)C1=NN(C(=O)COc2ccccc2)C(O)(c2ccc(Cl)cc2)C1 (centres undefined)
  PKD1 kinase inh = -2	RGS16-Gao HTS = 97	GALR2 agonist = nt	HSV replic up primary fold = 0.96	HSV replic up = i	Insulin prom inh cell count = nt	Insulin prom inh = nt
